Compound activity deposited in PubChem by National Center for Advancing Translational Sciences (NCATS).
Vaccinia mCherry: inhibitors of vaccinia virus infection (mCherry reporter signal); AID 720579; actives 0.63% (n = 310,000); Potency, µM (doses to about 36.5 µM), inactives show at the highest dose activity change, negative = inhibition, most hits filed as inhibitors; Vaccinia virus mCherry reporter infection, fluorescence; about a quarter of the inactives have no number; active = well fitted inhibition curve with a large enough effect; inconclusive = small, poorly fitted or top-dose-only effect; inactive = no such curve, though single readings can be large or run the other way; tested in A549 cells; also: nearly all actives have a fitted effect of over 35% in size; inactives centre near -10
Vaccinia Venus: vaccinia inhibition (Venus reporter); Potency, µM (doses to about 36.5 µM), for inactives: at the top dose activity change, negative = inhibition, usual class: inhibitors; actives 0.46% (n = 330,000); AID 720580; Vaccinia virus Venus reporter expression, fluorescence; active means well fitted inhibition curve with a large enough effect; inconclusive means small, poorly fitted or top-dose-only effect; inactive means no such curve, though single readings can be large or run the other way; tested in A549 cells; also: nearly all actives have a fitted effect of over 30% in size; inactives centre near -10
Numbers without * were called inactive; i = inactive; ? = inconclusive; nt = no result given; & = joins results of further samples; [ ] = dose if it differs, or a comment. % is scaled to controls: 0 for no effect and ±100 for the full control effect; potency is read from the fitted curve at half-maximal effect.

SMILES | Vaccinia mCherry | Vaccinia Venus
Cc1cc(C)n(-c2nc(NCCCN(C)C)c3c4c(sc3n2)CCCC4)n1 | -2%[7.34 µM] | -7%[7.34 µM]
CCc1ccc(NC(=O)Cn2c(=O)n(-c3ccccc3C)c(=O)c3c2c2cc(OC)ccc2n3C)cc1 | -15% | 13%
CNc1ccccc1C(=O)OCC(=O)N1CCN(c2ccc(OC)cc2)CC1 | -11% | -28%
Fc1cccc(Cl)c1/C=C/c1cnc2ccccc2n1 | -12% | -5%
O=C(CNC(=S)N(Cc1ccccc1)Cc1cccnc1)NC1CC1 | -14% | -9%
CNC(=S)N(Cc1ccc2c(c1)OCO2)C1CC(=O)N(c2ccc(F)cc2)C1=O (stereo not given) | nt | -2%
COc1ccc(-c2[nH]ncc2CNC(C)Cc2cccc(C)n2)cc1F (stereo not given) | i | -2%
O=C(O)C(Cc1cccs1)c1cccs1 (stereo not given) | -11% | -2%
O=C(c1cc(-c2ccccc2)nc2ccccc12)N1CCOCC1 | -9% | -1%
CCCC(C)NC(=S)NC(=O)c1cc(S(=O)(=O)N2CCOCC2)ccc1C (stereo not given) | -11% | -23%
C[N+]1(C)CC(O)[C@H](C(=O)[O-])C1 (stereo not given in full) | -16% | -1%
Cc1ccccc1NC(=O)C(Cc1ccccc1)n1cccc1 (stereo not given) | -7% | 7%
Cc1occc1C(=O)NNC(=O)c1ccc(Br)o1 | i | -5%
CCOC(=O)CN1C(c2ccc(O)cc2)Nc2ccc(Br)cc2C1c1ccccc1 (stereo not given) | -29% | ?
Cc1cc(C)n(-c2nc3ccccc3nc2Nc2ccc(Cl)cc2Cl)n1 | -11% | -3%
CC(=O)c1ccc(N2C(=O)N(Cc3cccc(C(F)(F)F)c3)c3ccccc3S2(=O)=O)cc1 | -3% | -14%
CCCC(=O)N(c1ccc2oc(=O)sc2c1)S(=O)(=O)c1cccs1 | nt | -14%
NC(=O)c1cc(C(=O)c2cccc(Cl)c2Cl)c[nH]1 | -13% | -11%
CC12CCC(O)CC1CCC1C2CCC2(C)C(C3=CC(=O)OC3)CCC12O (stereo not given) | ? | 0.89µM*
COc1cccc(Cn2nnc(C(=O)Nc3cc(C)ccc3C)c2N)c1 | -17% | -14%
C=CCOc1ccc(/C=C/C(=O)OCC(=O)N2CCCc3ccccc32)cc1 | i | -8%
CCN(CC)c1ccc(/C=C/c2c(C)cnc3ccc(C)cc23)cc1 | -7% | -14%
CC(C)C(=O)N1CC(=O)Nc2ccc(F)cc2C1c1ccc(F)cc1 (stereo not given) | -7% | 2%
CCCCCCC(=O)N1C/C=C\C(c2ccc(OC)cc2)N(Cc2ccc(F)cc2)C(=O)[C@H]1Cc1ccccc1 (stereo not given in full) | -9% | ?
O=C(CCNC(=O)c1ccco1)Nc1ccc(C(F)(F)F)cc1 | i | -2%

In another format: results already given.
Cc1occc1C(=O)NNC(=O)c1ccc(Br)o1
  Vaccinia mCherry: i
  Vaccinia Venus: -5%
CCOC(=O)CN1C(c2ccc(O)cc2)Nc2ccc(Br)cc2C1c1ccccc1 (stereo not given)
  Vaccinia mCherry: -29%
  Vaccinia Venus: ?
Cc1cc(C)n(-c2nc3ccccc3nc2Nc2ccc(Cl)cc2Cl)n1
  Vaccinia mCherry: -11%
  Vaccinia Venus: -3%

Other compounds follow.
SMILES | Vaccinia mCherry | Vaccinia Venus
O=C(c1ccncc1)N(Cc1ccccc1)Cc1nc2ccccc2c(=O)[nH]1 | -18% | -4%
Cc1cccn2c(=O)c3cc(C(=O)N4COCC4(C)C)n(C)c3nc12 | -16% | -9%
O=C(NCCc1ccc(Cl)cc1)C1CCN(Cc2cc3ccccc3n2Cc2ccccc2)CC1 | -26% | -22%
COc1ccc(-c2csc3ncnc(N4CCN(S(=O)(=O)c5cccs5)CC4)c23)cc1 | i | -12%
COc1ccccc1-c1nc(CNC(=O)Nc2ccccc2)c(C)o1 | -9% | -7%
COCCNC(=O)C1(C)CCCN(C(=O)c2ccc(F)cc2Cl)C1 (stereo not given) | i | -1%
CC1(C(=O)Nc2cccc(C(F)(F)F)c2)Cc2c(-c3cccc(C(F)(F)F)c3)ccnc2O1 (stereo not given) | -3% | -8%
Cc1c(NC(=O)NCCN2C(=O)C3C4C=CC(C4)C3C2=O)c(=O)n(-c2ccccc2)n1C (stereo not given) | -4% | 10%
O=[N+]([O-])c1ccc(Nc2nc(NCCO)nc(N3CCCC3)n2)cc1 | -1% | -17%
O=C(OCN1C(=O)c2ccccc2C1=O)c1ccco1 | i | -8%
COc1cc2c3nnc(-c4ccccc4)c-3cn(Cc3ccccc3F)c2cc1OC | -15% | -21%
OCC[C@@H]1C[C@@H](O)[C@H](O)[C@@]2(OCc3ccccc32)O1 | i | 0%
COc1ccc2c(CNCCc3cccs3)c(C(=O)O)n(Cc3ccccc3C)c2c1 | -6% | -14%
Cc1coc2cc3oc(=O)c(CC(=O)NCc4ccc(F)cc4)c(C)c3cc12 | ? | -23%
CCOC(=O)C1CCN(S(=O)(=O)c2cc3c(cc2C)NC(=O)CO3)CC1 | i | -15%
CC1(c2ccccc2)NC(=O)N(CC(=O)Nc2ccccc2C(=O)NC2CC2)C1=O (stereo not given) | -14% | -9%
CCCN1Cc2cccc(C(=O)Nc3ccc(CC)cc3)c2C1=O | i | -5%
COc1ccccc1-c1c(C)nn2c(N3CCC4(CC3)OCCO4)cc(C)nc12 | nt | -12%
CCCCN(C)C(=O)c1sc(=O)n(Cc2ccccc2C#N)c1C | 24% | -2%
Cc1noc(C)c1S(=O)(=O)N(C)C[C@H]1Oc2c(cccc2N(C)C)C(=O)N([C@H](C)CO)C[C@@H]1C | i | 0%
CCCc1nnc(NC(=O)CS(=O)(=O)c2ccccc2)s1 | -3% | 3%
COc1ccccc1Cn1c(C)c(C(=O)NCc2cccc(C)c2)sc1=O | i | -4%
Cc1ccccc1CN1C(=O)c2ccccc2S(=O)c2ccc(C(=O)NCCCN3CCOCC3)cc21 (stereo not given) | -19%[7.34 µM] | -14%[7.34 µM]
O=S1(=O)CC/C(=N\Nc2ccc(F)cc2)c2ccsc21 | ? | -15%
Cc1cccc(NC(=O)CSc2cn(CC(=O)N3CCCC3)c3ccccc23)c1C | -9% | -7%

Carrying on.
SMILES | Vaccinia mCherry | Vaccinia Venus
O=C(CCS(=O)(=O)c1ccc(Cl)cc1)Nc1nccs1 | ? | ?
COC(CNC(=O)c1ccc2c(c1)ncn2-c1ccc(C)cc1C)OC | -10% | -23%
CCn1c2ccccc2c2nnc(SCCCn3c(=O)[nH]c4ccccc43)nc21 | ? | -28%
Cc1cnc(SCc2ccccn2)nc1C1CCCN(C(=O)c2scc3c2CCCC3)C1 (stereo not given) | ? | ?
O=C1CC(N2CCC(c3nc4ccccc4[nH]3)CC2)C(=O)N1c1ccccc1F (stereo not given) | -1% | -4%
CCCn1nc(NS(=O)(=O)c2cccc3nonc23)c2cc3ccccc3nc21 | -2%[7.34 µM] | -5%[7.34 µM]
O=C(CCc1n[nH]c(=O)[nH]c1=O)N1CCCCC1 | 0% | -5%
CC(C)N(C)c1ncnc2c1ncn2[C@H]1CN(Cc2ccco2)C[C@@H](CO)O1 | 8% | -6%
COc1ccc(CNC(=O)c2cnc3scc(C)n3c2=O)cc1 | -9% | -9%
O=C1NC(=Nc2ccccc2)S/C1=C\C=C\c1ccco1 | -8% | -16%
CCOC(=O)c1c(C)n(CCNC(C)=O)c2ccc(O)cc12 | -2% | -19%
COC(=O)c1sccc1NC(=O)c1cc(-c2ccc(C)cc2C)nc2ccccc12 | nt | 8%
COc1ccc(-n2nc(C(=O)NCC(=O)N3CCN(c4ccccc4OC)CC3)c3ccccc3c2=O)cc1OC | -14% | -5%
COC(=O)c1ccccc1NC(=O)c1ccc(CN2CC(=O)N3CCCCC3C2=O)cc1 (stereo not given) | i | -19%
Cc1ccccc1NC(=O)NCCc1nc2ccccc2[nH]1 | i | -15%
Cc1ccc(N2C(=O)N(CC(=O)Nc3cc(F)ccc3C)C(=O)C2C)cc1 (stereo not given) | -7% | -22%
CCN1C(=O)/C(=c2\sc3nc(=O)c(Cc4ccccc4)nn3c2=O)c2ccccc21 | -13% | -10%
CCCC(=O)Nc1sc(C)c(C)c1C(=O)Nc1cccc(C)c1 | -2% | -4%
COc1ccc(NC2CC(=O)N(c3ccccc3)C2=O)cc1 (stereo not given) | nt | -13%
CCOc1cc(NC(=S)NC)c(OCC)cc1NC(=O)c1ccc(OC)cc1 | -14% | -14%
COc1ccc(CN(Cc2ccc(OC)cc2)C(=O)c2cccs2)cc1 | ? | -25%
COc1c(C(=O)NC(=S)Nc2nnn(C)n2)cc2ccccc2c1Br | -11% | -10%
COc1ccc(C(C(=O)NC2CCCC2)N(C(=O)c2csnn2)C2CCCC2)cc1 (stereo not given) | i | -17%
Cc1ccc(C2CC(c3cccs3)=NN2C(=O)CSc2nc3ccccc3o2)cc1 (stereo not given) | i | -7%
CN1C(=O)C(C)(C)c2cc(S(=O)(=O)N3CCN(c4ccccc4)CC3)ccc21 | 26% | -1%

Full records as entered above. Screens in order: Vaccinia mCherry, Vaccinia Venus
Profile of CCOC(=O)c1c(C)n(CCNC(C)=O)c2ccc(O)cc12 → -2%, -19%
Profile of CN1C(=O)C(C)(C)c2cc(S(=O)(=O)N3CCN(c4ccccc4)CC3)ccc21 → 26%, -1%
Profile of CCCn1nc(NS(=O)(=O)c2cccc3nonc23)c2cc3ccccc3nc21 → -2%[7.34 µM], -5%[7.34 µM]
Profile of CC(C)N(C)c1ncnc2c1ncn2[C@H]1CN(Cc2ccco2)C[C@@H](CO)O1 → 8%, -6%
Profile of O=C(CCS(=O)(=O)c1ccc(Cl)cc1)Nc1nccs1 → ?, ?

(listing goes on)
SMILES | Vaccinia mCherry | Vaccinia Venus
C1CN(c2nc3nonc3nc2N2C[C@H]3CC[C@H]2C3)CCS1 | i | 0%
CCOC(=O)c1c(NC(=O)COc2ccccc2F)sc2c1CCCC2 | 2% | 6%
COc1ccc(CN2CCN(c3nc4ccccc4s3)CC2)cc1 | i | -12%
CCC(CC)C(=O)OCC(=O)C1(O)CCC2C3CCC4=CC(=O)CCC4(C)C3C(O)CC21C (stereo not given) | i | -23%
C/C(=N\Nc1nc(C)cc(C)n1)c1ccc(C)o1 | -14% | -9%
COc1ccc(CNC(=O)C2=CC(c3ccc(OC)c(OC)c3)=NS(=O)(=O)N2C)cc1 | 9%&-5% | 4%&-10%
CCN1CCn2c3c(c4cc(Cl)ccc42)CCCC31 (stereo not given) | -28% | -15%
COc1cccc(C(C)NC(=S)NCc2ccc(Cl)cc2)c1 (stereo not given) | -15% | -4%
Cc1nc2ccc(NC(=O)c3cccs3)cc2s1 | -13% | -6%
Cc1ccccc1NC(=O)Cn1nc(-c2ccc(Cl)s2)ccc1=O | 0% | -20%
CCOc1ccc(NCC2CCOC(C)(C)C2)cc1 (stereo not given) | nt | -9%
CCOC(=O)N1CCN(c2nc(-c3ccc(Cl)cc3)cs2)CC1 | i | -3%
Cc1ccc(-n2ncc3c2CC(C)(C)CC3NC(=O)CN2CCCC2=O)cc1 (stereo not given) | i | -12%
CC(C(=O)Nc1ncccn1)(c1ccccc1)c1ccccc1 | -8% | -8%
CSc1nnc(SCC(=O)N(C)c2c(N)n(Cc3ccccc3)c(=O)[nH]c2=O)s1 | -7% | -25%
COc1ccc(CCN2CC(C(=O)NCc3cccc(F)c3)CCC2=O)cc1 (stereo not given) | -3% | -2%
CCc1nc(-c2cc(S(=O)(=O)N3CCN(c4ccccc4OC)CC3)ccc2OC)no1 | -5% | -2%
Cc1cccc(CN2CCN(C3CN(CCc4ccccc4)S(=O)(=O)C3)CC2)c1 (stereo not given) | 11% | 1%
CCOC(=O)c1ccc[n+](CC(=O)Nc2ccccc2OC(F)F)c1 | 0% | -11%
Cc1c(Cl)cccc1N=C1NC(=O)CS1 | -25% | -14%
O=C(Nc1cc(=O)[nH]c2nc(-c3ccc(Cl)cc3)nn12)c1ccccc1 | -15% | -9%
O=C(CN1C(=O)c2ccccc2C1=O)NCC1CCCO1 (stereo not given) | nt | -8%
CCC(C)CCCCNC1=NCCS1 (stereo not given) | -18% | -17%
Cc1ccc(/C=C/C(=O)Nc2nn[nH]n2)o1 | -7% | 6%
COCCNC(=O)/C(C#N)=C/C=C/c1ccccc1[N+](=O)[O-] | -10% | -10%

(more compounds)
SMILES | Vaccinia mCherry | Vaccinia Venus
COc1ccc(C(O)c2nc(-c3ccc4ccccc4c3)cs2)cc1 (stereo not given) | 11% | -7%
Cc1ccccc1C(=O)Nc1cccc(-c2ccc(N3CCOCC3)nn2)c1 | -12% | -9%
CCOC(=O)c1cccnc1SCC(=O)N(CC)c1cccc(C)c1 | -3%&-10% | -10%&-8%
C[C@@H]1CN([C@@H](C)CO)C(=O)CCCn2nncc2CO[C@H]1CN(C)Cc1ccc(C(F)(F)F)cc1 | -22% | -20%
COc1cc(CCCN2C(=S)NC[C@@H]2CCCCN)cc(OC)c1OC | i | -10%
O=C(NC1CCCCCC1)C(=O)NC1CC1 | i | -9%
Cn1nc(-c2ccccc2)cc1NC(=O)c1ccc(Cl)cc1 | 14% | -2%
COc1ccc2nc(NC(=O)C34CC5CC(CC(NC(C)=O)(C5)C3)C4)sc2c1 | -7% | -19%
CCOC(=O)c1ccc(N/C=C/C(=O)C(C)(C)C)cc1 | -13% | -23%
CCNC(=S)NNC(=O)CC(C)C | -14% | -6%
CCOc1ccc(S(=O)(=O)Nc2cccc(C(=O)N(C)CC(=O)Nc3cccc(OC)c3)c2)cc1 | -3% | -21%
CC(C)(C)NC(=O)CSc1nncn1NCc1ccccc1 | 2% | -6%
